NOMO-1 viab = STK33 inhibitor candidate reducing NOMO-1 cell viability | NOMO-1 AML viability, CellTiter-Glo luminescence, 72 h | inhibition, % (concentration not given with the values) | 37,000 compounds, 7.5% hits | AID 2330;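 active = most replicates above 80%; inconclusive = exactly half above 80%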;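 note: wells of about 30 µL received 25 nL stock; 0% = median of vehicle wells and 100% = reference inhibitor level; the first replicate is given; inactives centre near 10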
* hit, by the source's call; u = inconclusive. Only part of the results is shown; count on the stated rates, not on these rows.

SMILES	NOMO-1 viab
COc1ccc(S(=O)(=O)Nc2ccc3c(c2)C(=O)N([C@H](C)CO)C[C@H](C)[C@H](CN(C)C(=O)CCC(F)(F)F)OCCCC[C@@H](C)O3)cc1	8
COc1ccc(NC(=O)N(C)C[C@@H]2Oc3ccc(NS(=O)(=O)c4cn(C)cn4)cc3CC(=O)N([C@H](C)CO)C[C@@H]2C)cc1	-14
C[C@H](CO)N1C[C@H](C)[C@H](CN(C)C(=O)Nc2ccccc2)Oc2ccc(NC(=O)Nc3ccc4c(c3)OCO4)cc2C1=O	2
Cc1noc(C)c1S(=O)(=O)Nc1cccc2c1O[C@@H](CN(C)Cc1ccc(C(F)(F)F)cc1)[C@@H](C)CN([C@H](C)CO)C2=O	4
C[C@H](CO)N1C[C@H](C)[C@H](CN(C)C)Oc2ccc(NC(=O)CCN3CCOCC3)cc2C1=O	-18
NNC(=O)c1csc(CS(=O)(=O)Cc2ccco2)n1	17
C[C@@H]1CN([C@@H](C)CO)C(=O)Cc2cc(NC(=O)C3CCCCC3)ccc2O[C@@H]1CN(C)Cc1ccc2c(c1)OCO2	13
CNC[C@@H]1Oc2c(NC(=O)c3nc4ccccc4s3)cccc2C(=O)N([C@@H](C)CO)C[C@@H]1C	8
COc1ccc(/C=C/C(=O)CC(=O)/C=C/c2cccc(O)c2OC)cc1O	115*
C[C@H](CO)N1C[C@H](C)[C@@H](CN(C)Cc2ccc(Cl)c(Cl)c2)Oc2ccc(NS(=O)(=O)c3ccc(Cl)cc3)cc2C1=O	57
Cc1ccc(S(=O)(=O)Nc2ccc3c(c2)CC(=O)N([C@H](C)CO)C[C@@H](C)[C@@H](CN(C)Cc2ccc(-c4ccccc4)cc2)O3)cc1	11
CCOC(=O)c1c(C)oc2ccc(N(C(=O)c3ccncc3)S(=O)(=O)c3ccc(F)cc3C)cc12	2
C[C@H]1CN([C@@H](C)CO)C(=O)c2cc(NC(=O)Cn3cnnn3)ccc2O[C@H]1CN(C)Cc1ccc(C(=O)Nc2ccccc2N)cc1	-10
C[C@@H]1CN([C@H](C)CO)C(=O)c2cc(NC(=O)Nc3ccc(C(F)(F)F)cc3)ccc2O[C@@H]1CN(C)S(=O)(=O)c1ccccc1	45
C[C@@H]1CN([C@H](C)CO)C(=O)c2cc(NC(=O)Nc3ccccc3)ccc2O[C@@H]1CN(C)C(=O)NC1CCCCC1	11
C[C@@H]1CN([C@@H](C)CO)C(=O)c2cccc(NC(=O)CCCCCC(=O)Nc3ccccc3N)c2O[C@@H]1CN(C)Cc1ccc(Oc2ccccc2)cc1	126*
Cc1noc(C)c1NC(=O)Nc1ccc2c(c1)C(=O)N([C@H](C)CO)C[C@H](C)[C@H](CN(C)C(=O)NC1CCCCC1)O2	-14
C[C@@H]1CN([C@@H](C)CO)C(=O)c2cccc(N(C)C)c2O[C@@H]1CN(C)CC1CC1	17
COc1ccc(NC(=O)N(C)C[C@H]2Oc3c(cccc3N(C)C)C(=O)N([C@H](C)CO)C[C@@H]2C)cc1	10
COc1ccc(OC)c(-n2c(=S)[nH]c3cc(C(=O)NCc4ccc(F)cc4)ccc3c2=O)c1	17
C[C@@H]1CN([C@H](C)CO)C(=O)c2cccc(NC(=O)Nc3ccccc3)c2O[C@H]1CN(C)Cc1ccc(Cl)c(Cl)c1	106*
C[C@H]1CN([C@@H](C)CO)C(=O)c2cccc(NS(=O)(=O)c3cn(C)cn3)c2O[C@@H]1CN(C)Cc1ccc2c(c1)OCO2	28
Cc1ccc(C(=O)O)cc1NC(=O)COc1ccc(I)cc1	13
CC(=O)OCC1=C[C@@H](O)[C@@H]2C=CO[C@@H](OC3OC(CO)C(O)C(O)C3O)[C@H]12 (stereo partly specified)	17
O=C(Nc1cccc([N+](=O)[O-])c1)C1CCCN(S(=O)(=O)c2ccc(F)cc2)C1 (stereo unspecified)	13

As a working copy, part of the list above:
SMILES	NOMO-1 viab
COc1ccc(S(=O)(=O)Nc2ccc3c(c2)C(=O)N([C@H](C)CO)C[C@H](C)[C@H](CN(C)C(=O)CCC(F)(F)F)OCCCC[C@@H](C)O3)cc1	8
COc1ccc(NC(=O)N(C)C[C@@H]2Oc3ccc(NS(=O)(=O)c4cn(C)cn4)cc3CC(=O)N([C@H](C)CO)C[C@@H]2C)cc1	-14

The results go on:
SMILES	NOMO-1 viab
NNC(=O)CS(=O)Cc1cccc(C(F)(F)F)c1 (stereo unspecified)	1
COc1ccc(S(=O)(=O)Nc2cccc3c2O[C@@H](CN(C)C(=O)Nc2c(C)noc2C)[C@@H](C)CN([C@@H](C)CO)C3=O)cc1	15
Cc1ccc(S(=O)(=O)N(C)C[C@H]2Oc3ccc(NC(=O)NC4CCCCC4)cc3CC(=O)N([C@@H](C)CO)C[C@@H]2C)cc1	4
COc1ccc(CN(C)C[C@@H]2Oc3ccc(NS(=O)(=O)c4ccc(OC)cc4)cc3C(=O)N([C@@H](C)CO)C[C@@H]2C)cc1	11
Cc1ccc(-n2c(C)nnc2SCC(=O)Nc2c(C)cccc2C)cc1C	20
C[C@@H]1CN([C@@H](C)CO)C(=O)c2cc(NC(=O)CCN3CCOCC3)ccc2O[C@H]1CN(C)CC1CCCCC1	-2
COc1ccc(/C=C/C(=O)O[C@@H]2[C@@H](OC(=O)/C=C/c3ccc(OC)cc3)[C@H](C)O[C@@H](O[C@H]3[C@@H]4C=CO[C@@H](O[C@@H]5O[C@H](CO)[C@@H](O)[C@H](O)[C@H]5O)[C@@H]4[C@@]4(CO)O[C@@H]34)[C@@H]2OC(C)=O)cc1	u
CCOC(=O)N1CCN(CC(O)Cn2c(=O)c3c(ncn3C)n(C)c2=O)CC1 (stereo unspecified)	-14
O=C(Nc1cccc([N+](=O)[O-])c1)Nc1nn(Cc2ccc(Cl)c(Cl)c2)cc1Cl	24
O=C(CCN1C(=O)c2ccccc2C1=O)Nc1ccccc1-c1ccccc1	-4
CNC[C@@H]1Oc2ccc(NC(=O)Nc3cccc4ccccc34)cc2C(=O)N([C@@H](C)CO)C[C@H]1C	-11
C[C@@H]1CN([C@H](C)CO)C(=O)c2cccc(NC(=O)Nc3ccc4c(c3)OCO4)c2O[C@H]1CN(C)S(=O)(=O)c1ccc(Cl)cc1	11
CS(=O)(=O)NC(C(=O)O)c1ccccc1 (stereo unspecified)	-9
Cc1cc(NC(=O)N(C)C)nn1-c1ccccc1	1
CC(C)NC(=O)Nc1ccc2c(c1)C(=O)N([C@@H](C)CO)C[C@H](C)[C@H](CN(C)Cc1ccccc1)O2	21
Cc1ccc(S(=O)(=O)N(C)C[C@@H]2Oc3c(NC(=O)c4ccncc4)cccc3C(=O)N([C@@H](C)CO)C[C@H]2C)cc1	-3
COc1ccc(S(=O)(=O)Nc2cccc3c2O[C@H](CN(C)C(=O)Nc2ccc(F)cc2)[C@@H](C)CN([C@H](C)CO)C3=O)cc1	12
COc1c2c(c(C)c3c1C(=O)OC3)OC1(C)CC(O)C3(O)C(C)(C)OC(=O)CCC3(C)C1C2 (stereo unspecified)	-4
C[C@@H]1CCCCO[C@H](CN(C)Cc2ccc(C(=O)Nc3ccccc3N)cc2)[C@@H](C)CN([C@H](C)CO)C(=O)c2cc(NS(=O)(=O)c3cn(C)cn3)ccc2O1	40
COc1cc(NC(=O)COc2ccc([N+](=O)[O-])cc2)ccc1NC(=O)c1ccccc1Cl	12
COc1ccc(S(=O)(=O)N(C)C[C@@H]2OCCCC[C@@H](C)Oc3ccc(NC(=O)c4ccncc4)cc3C(=O)N([C@H](C)CO)C[C@@H]2C)cc1	27
COc1ccc(C(=O)Nc2ccc3nc(SCC(=O)N4CCOCC4)sc3c2)cc1OC	33
COc1ccc(S(=O)(=O)Nc2ccc3c(c2)CC(=O)N([C@H](C)CO)C[C@H](C)[C@H](CN(C)Cc2ccc(-c4ccccc4)cc2)O3)cc1	88*
O=c1[nH]nc(C(F)(F)F)n2cccc12	-2
CC(C)(O)C1Cc2cc(CCc3cc(O)cc(O)c3)ccc2O1 (stereo unspecified)	6
The results go on:
SMILES	NOMO-1 viab
CCOc1ccc(-n2c(SCc3cccc([N+](=O)[O-])c3)nnc2-c2ccncc2)cc1	41
COc1ccc(S(=O)(=O)Nc2ccc3c(c2)C(=O)N([C@@H](C)CO)C[C@@H](C)[C@H](CN(C)CC2CC2)O3)cc1	7
C[C@@H]1CN([C@H](C)CO)C(=O)Cc2cc(NC(=O)Cc3ccccc3)ccc2O[C@@H]1CN(C)Cc1ccccc1	-14
CCn1c(SCC(=O)Nc2ccccc2C(F)(F)F)nnc1-c1cccc(C)c1	15
C[C@@H]1CN([C@@H](C)CO)C(=O)c2cc(NC(=O)Nc3ccc(F)cc3)ccc2O[C@@H]1CN(C)Cc1ccc(C(=O)O)cc1	10
CCOc1nc(NC2CCCC2)nc(N2CCC(C)CC2)n1	u
CCc1cccc(C)c1NC(=O)CSc1nc2ccccc2c(=O)n1-c1cccc2ccccc12	u
C[C@@H]1CN([C@@H](C)CO)C(=O)c2cc(NC(=O)C3CC3)ccc2O[C@H]1CN(C)Cc1ccc(Oc2ccccc2)cc1	47
Cc1noc(C)c1S(=O)(=O)Nc1ccc2c(c1)CC(=O)N([C@@H](C)CO)C[C@@H](C)[C@@H](CN(C)S(=O)(=O)c1c(C)noc1C)O2	7
COc1ccc(S(=O)(=O)N(C)C[C@@H]2Oc3c(cccc3N(C)C)C(=O)N([C@@H](C)CO)C[C@@H]2C)cc1	13
C[C@H]1CN([C@@H](C)CO)C(=O)c2cccc(NC(=O)Nc3ccc4c(c3)OCO4)c2O[C@H]1CN(C)Cc1ccc(-c2ccccc2)cc1	61
O=C(NCc1ccco1)c1ccc(NC(=O)c2ccccc2)cc1	10
C[C@@H]1CN([C@H](C)CO)C(=O)Cc2cc(NC(=O)C3CC3)ccc2O[C@H]1CN(C)S(C)(=O)=O	7
CCOc1cc(C(=O)O)cc(Br)c1OCC(N)=O	16
COc1ccc(OC)c(C2C(C(=O)c3ccco3)C(=O)C(=O)N2CCN(C)C)c1 (stereo unspecified)	9
Cc1noc(C)c1S(=O)(=O)Nc1ccc2c(c1)C(=O)N([C@H](C)CO)C[C@@H](C)[C@H](CN(C)C)O2	19
C[C@@H]1CN([C@@H](C)CO)C(=O)c2cc(NC(=O)Cn3cnnn3)ccc2O[C@@H]1CN(C)C(=O)Nc1ccc2c(c1)OCO2	-9
CNC(=O)CN(c1cc(C)ccc1C)S(=O)(=O)c1ccccc1	-19
C[C@H](CO)N1C[C@H](C)[C@H](CN(C)Cc2ccc(C(=O)O)cc2)Oc2ccc(NS(=O)(=O)c3ccccc3)cc2CC1=O	1
COc1ccc(NC(=O)CN(c2ccc(Cl)c(Cl)c2)S(C)(=O)=O)cc1OC	5
COc1ccc(C)cc1NC(=O)c1ccc(OCC(=O)Nc2ccccc2C(F)(F)F)cc1	1
C[C@@H]1CN([C@@H](C)CO)C(=O)c2cccc(NS(=O)(=O)c3ccccc3)c2O[C@@H]1CN(C)C	23
CC(C)NC(=O)N(C)C[C@H]1Oc2ccc(NC(=O)Cc3ccccc3)cc2C(=O)N([C@H](C)CO)C[C@@H]1C	1
CC1CCN(S(=O)(=O)c2ccc(Cl)c(C(=O)Nc3ccccc3[N+](=O)[O-])c2)CC1	17
O=C(Oc1ccc(N(Cc2cccs2)C2=NS(=O)(=O)c3ccccc32)cc1)c1ccccc1	35
Additional entries follow:
SMILES	NOMO-1 viab
CCC(=O)c1ccccc1OCCCn1cncn1	18
COC(=O)COc1ccc(C2NC(=S)NC(C)=C2C(=O)OC)cc1 (stereo unspecified)	89*
Cn1c(SCC(=O)Nc2cccc(Cl)c2)nnc1-c1ccc(OCC(F)(F)F)nc1	8
COc1ccc(NC(=O)N(C)C[C@@H]2Oc3c(NS(=O)(=O)c4ccc(Cl)cc4)cccc3C(=O)N([C@H](C)CO)C[C@H]2C)cc1	-2
Cc1noc(C)c1S(=O)(=O)Nc1ccc2c(c1)CC(=O)N([C@@H](C)CO)C[C@H](C)[C@@H](CN(C)C(=O)Nc1cccc3ccccc13)O2	-5
O=C(Nc1ccc(Cl)cc1)NC(C(=O)O)c1ccccc1 (stereo unspecified)	10
C[C@@H]1CN([C@H](C)CO)C(=O)c2cccc(NC(=O)Nc3ccc(C(F)(F)F)cc3)c2O[C@H]1CN(C)C(=O)Nc1ccc(F)cc1	u
C[C@@H]1CN([C@@H](C)CO)C(=O)c2cc(NS(=O)(=O)c3ccc(Cl)cc3)ccc2O[C@@H]1CN(C)Cc1ccc(-c2ccccc2)cc1	123*
Cc1noc(C)c1NC(=O)N(C)C[C@H]1Oc2c(NC(=O)Nc3ccc(F)cc3)cccc2C(=O)N([C@H](C)CO)C[C@@H]1C	-6
C[C@H]1CN([C@@H](C)CO)C(=O)Cc2cc(NC(=O)Nc3ccc4c(c3)OCO4)ccc2O[C@@H]1CN(C)Cc1ccc(C(=O)O)cc1	8

Among those listed so far, these contain a Cl atom:
SMILES	NOMO-1 viab
C[C@H](CO)N1C[C@H](C)[C@@H](CN(C)Cc2ccc(Cl)c(Cl)c2)Oc2ccc(NS(=O)(=O)c3ccc(Cl)cc3)cc2C1=O	57
C[C@@H]1CN([C@H](C)CO)C(=O)c2cccc(NC(=O)Nc3ccccc3)c2O[C@H]1CN(C)Cc1ccc(Cl)c(Cl)c1	106*
O=C(Nc1cccc([N+](=O)[O-])c1)Nc1nn(Cc2ccc(Cl)c(Cl)c2)cc1Cl	24
C[C@@H]1CN([C@H](C)CO)C(=O)c2cccc(NC(=O)Nc3ccc4c(c3)OCO4)c2O[C@H]1CN(C)S(=O)(=O)c1ccc(Cl)cc1	11
COc1cc(NC(=O)COc2ccc([N+](=O)[O-])cc2)ccc1NC(=O)c1ccccc1Cl	12
COc1ccc(NC(=O)CN(c2ccc(Cl)c(Cl)c2)S(C)(=O)=O)cc1OC	5
CC1CCN(S(=O)(=O)c2ccc(Cl)c(C(=O)Nc3ccccc3[N+](=O)[O-])c2)CC1	17
Cn1c(SCC(=O)Nc2cccc(Cl)c2)nnc1-c1ccc(OCC(F)(F)F)nc1	8
COc1ccc(NC(=O)N(C)C[C@@H]2Oc3c(NS(=O)(=O)c4ccc(Cl)cc4)cccc3C(=O)N([C@H](C)CO)C[C@H]2C)cc1	-2
O=C(Nc1ccc(Cl)cc1)NC(C(=O)O)c1ccccc1 (stereo unspecified)	10
C[C@@H]1CN([C@@H](C)CO)C(=O)c2cc(NS(=O)(=O)c3ccc(Cl)cc3)ccc2O[C@@H]1CN(C)Cc1ccc(-c2ccccc2)cc1	123*

Screening results deposited in PubChem by Broad Institute.
